CBX7 AlphaScr: inhibitors of human CBX7 binding to H3K27me3 peptide; O95931; AlphaScreen His6-CBX7 / biotin-H3K27me3 peptide binding; stronger effect = lower value; normalised signal (fraction of DMSO) (no concentration beside the values); 1.1% of 66,000 active; AID 1224903; in the data active = normalised signal below about 0.5;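 note: 100 nL library stock added to about 20 µL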
Target sequence (O95931 whole entry, looked up): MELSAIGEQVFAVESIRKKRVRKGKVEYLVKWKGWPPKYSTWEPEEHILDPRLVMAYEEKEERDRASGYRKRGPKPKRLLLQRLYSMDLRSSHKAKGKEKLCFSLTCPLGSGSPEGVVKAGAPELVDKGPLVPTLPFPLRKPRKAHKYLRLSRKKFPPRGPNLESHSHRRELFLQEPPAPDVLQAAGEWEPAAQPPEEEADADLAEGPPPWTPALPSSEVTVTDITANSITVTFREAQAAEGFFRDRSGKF
CBX7 AlphaScr z-score: further read-out of CBX7 AlphaScr, marked with its call; z-score; measured here: z-score of CBX7 signal; some inactives read as strong as hits; reference of the scale not given here;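 same signal on another scale; lower means less binding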
* = called active by the depositor. Some of the compounds tested. The share of hits here may be higher or lower than overall.

Structure | CBX7 AlphaScr | CBX7 AlphaScr z-score
COc1ccccc1Nc1cc(C(=O)NC2CCCC(C)C2C)c2ccccc2n1 (stereo not drawn) | 1.11 | 0.106
COc1ccc(NC(=O)C2CCN(c3nnc(-n4cccc4)s3)CC2)cc1 | 0.909 | -1.5
CCOC(=O)c1cnc2c(C)cc(Cl)cc2c1Nc1cccc(C(C)=O)c1 | 1.07 | 0.304
COc1ccc(CCNC(=O)C2CC(=O)N(c3ccc(C(C)(C)C)cc3)C2)cc1OC (stereo not drawn) | 0.855 | -0.197
CCCC1=Nc2cc(C(=O)NCc3ccc(F)cc3)ccc2Sc2ccccc21 | 0.974 | -1.31
COc1ccccc1NC(=O)Nc1nnc(N2CCCCC2)s1 | 0.972 | -0.738
Cn1c(C(=O)N2CCC(C(=O)NCCCc3ccccc3)CC2)cc2sccc21 | 1.15 | 2.7
COc1ccc(-n2c(=O)cc(N3CCCC3)[nH]c2=O)cc1 | 1.03 | 0.188
CC1CC(C)CN(CCCNC(=O)C2CC(=O)N(C3CCCCC3)C2)C1 (stereo not drawn) | 1.03 | 0.0522
Cc1ccc(CN2C(=O)CCC2C(=O)NCCN2CCOCC2)cc1 (stereo not drawn) | 1.01 | 0.19
O=C(NCc1ccc(F)cc1)c1csc2c1CCCC2 | 1.05 | 1.37
O=C(Nc1ccc2oc(-c3cccc(F)c3)nc2c1)c1cccs1 | 1.07 | 1.2
Cc1c(C(=O)NCc2ccccc2Cl)oc2ccc(S(=O)(=O)N3CC(C)CC(C)C3)cc12 (stereo not drawn) | 0.777 | -2.25
Cc1nc2nc(SCC(=O)NC3CCCC3)nn2c(C)c1Cc1cccc(Cl)c1 | 1.1 | 0.996
O=C(NC1CCCC1)c1nnc(Cc2ccc(F)cc2)o1 | 0.86 | -1.61
CCOc1cc2c(cc1OCC)C1C(C(=O)NCCOC)c3ccccc3C(=O)N1CC2 (stereo not drawn) | 1.12 | 0.951
CCC(C)NC(=O)CCc1c(C)nc2cc(-c3ccc(Cl)cc3)nn2c1C (stereo not drawn) | 0.985 | -0.361
Cc1noc(C)c1S(=O)(=O)N1CCCC(C(=O)Nc2ccc(C(C)C)cc2)C1 (stereo not drawn) | 1.07 | 0.568
COc1cccc(NC(=O)C2CCN(S(=O)(=O)c3ccc4c(c3)CCC(=O)N4)CC2)c1 | 0.949 | -0.88
COc1ccc(OC)c(C2=NOC(C(=O)NC3CCCC3)C2)c1 (stereo not drawn) | 1.02 | 0.72
Cc1c(C(=O)Nc2ccccc2C(F)(F)F)sc2ncn(Cc3cccc(F)c3)c(=O)c12 | 1.13 | 0.9
COc1cccc(N2CCN(C(=O)CCCC3=NS(=O)(=O)c4ccccc4N3)CC2)c1 | 1.01 | 0.227
COc1cccc(NC(=O)CSc2nnc(CNC(=O)c3c(F)cccc3Cl)o2)c1 | 0.889 | -1.82
CCn1c(C)nc2cc(NC(C)=O)ccc21 | 1 | 0.0552
COc1ccc(OCCCn2c(-c3ccc(Cl)cc3)nc3ccccc3c2=O)cc1 | 1.42 | 5.24
COc1ccc(CNC(=O)CCc2cn(Cc3ccccc3)c3ccccc23)c(OC)c1 | 0.901 | -1.71
OC(CCc1ccccc1)(CCN1CCCCC1)c1ccccc1 (stereo not drawn) | 1.18 | 0.509
Cc1nnc(Sc2cc(C(=O)NCc3ccccn3)c3ccccc3n2)s1 | 0.866 | -2.3
Cc1ccc2c(c1)-c1c(cnn1CC(=O)NCCN(C)C1CCCCC1)CO2 | 0.995 | -0.0949
COc1ccc(NC(=O)c2c(NC(=O)Cc3ccccc3)sc3c2CCCC3)cc1 | 1.01 | 0.186
Cc1nnc(Sc2cc(C(=O)NC(C)c3ccccc3)c3ccccc3n2)s1 (stereo not drawn) | 1.02 | 0.406
O=C(CC1Sc2ccc(C(F)(F)F)cc2NC1=O)Nc1ccccc1F (stereo not drawn) | 1.11 | 1.94
COc1ccc(-n2nnc3c(=O)n(CC(=O)N4CCCCC4)cnc32)cc1 | 0.923 | -1.47
COc1cccc(C(=O)Nc2ccc3oc(-c4ccc(C(C)(C)C)cc4)nc3c2)c1 | 0.988 | -0.5
Cc1c(C(=O)Nc2ccc3c(c2)OCO3)sc2ncnc(N3CCN(c4ccccc4)CC3)c12 | 0.802 | -2.54
COc1ccc(Nc2c(-c3ccc(N4CCOCC4)cc3)nc3cnccn23)cc1 | 0.971 | -1.2
CCOc1ccccc1NC(=O)C1CCCN(S(=O)(=O)c2c(C)noc2C)C1 (stereo not drawn) | 1.22 | 3.38
CN(Cc1ccccc1)C(=O)c1ccc2c(c1)N(Cc1ccccc1)C(=O)c1ccccc1S2(=O)=O | 1.01 | 0.241
Cc1cc(-c2ccccc2)nc(SCC(=O)O)n1 | 0.891 | -1.18
CCc1ccc(NC(=O)N(Cc2ccc(C)cc2)Cc2cccnc2)cc1 | 0.976 | -1.24
COc1ccc(CN2C(=O)c3ccccc3C2C(=O)NCCCN2CC(C)CC(C)C2)c(OC)c1 (stereo not drawn) | 1 | 0.0417
CCCCN1C(=O)c2ccccc2C1C(=O)NC1CCC(C)CC1 (stereo not drawn) | 0.988 | -0.0421
COc1ccc(CN2C(=O)CCC2(C)C(=O)NC2CCCCCCC2)c(OC)c1 (stereo not drawn) | 0.859 | -1.62
COc1ccc(CCNC(=O)c2cnc3sccn3c2=O)cc1OC | 0.863 | -1.62
Cc1[nH]c2ccccc2c1CCNC(=O)c1cc(F)c(F)cc1Cl | 1.18 | 1.69
COc1ccccc1CNC(=O)C1CCN(S(=O)(=O)c2cccc3cccnc23)CC1 | 0.989 | -0.141
COc1ccc(C2C(Oc3ccc(Cl)cc3)C(=O)N2c2ccc(C)c(Cl)c2)cc1OC (stereo not drawn) | 0.988 | -0.28
O=C(Nc1ccc(Cl)c(-c2nc3ccccc3s2)c1)c1cccnc1 | 0.808 | -2.28
O=C(c1ccc2c(c1)N(Cc1cccc(Cl)c1)C(=O)CS2)N1CCC2(CC1)OCCO2 | 0.916 | -1.82
CCc1nc2c(cnn2-c2ccc(F)cc2)c(=O)n1-c1ccc(N2CCC(C)CC2)cc1 | 0.726 | -5.46
COc1ccc(OC)c(NC(=O)CSc2nc3nc(C)c(Cc4ccccc4)c(C)n3n2)c1 | 0.777 | -0.899
CC(=O)Nc1ccc(NC(=O)C2CCN(c3nn4c(=O)cc(C)nc4s3)CC2)cc1 | 1.23 | 2.18
CCc1ccc2nc(N3CCC(C(=O)NCc4ccc5c(c4)OCO5)CC3)sc2c1 | 1.3 | 0.601
COc1ccccc1NC(=O)c1sc2nc(-c3ccccc3)cn2c1C | 0.982 | -0.338
COc1ccc(/C=C/c2ccnc(NS(=O)(=O)c3ccc(NC(=O)c4ccccc4)cc3)n2)cc1OC | 1.1 | 0.468
CCOc1ccc(-c2cc(CCCC(=O)NCc3ccccc3)no2)cc1 | 0.908 | -0.397
COc1ccccc1CNC(=O)C(C)C1Sc2ccccc2N(Cc2ccccc2Cl)C1=O (stereo not drawn) | 0.932 | -1.87
CN1C2CCC1CC(N(CCc1ccccc1)C(=O)c1ccc(Cl)cc1)C2 (stereo not drawn) | 0.927 | -0.791
COc1ccc(CNC(=O)C2CCN(S(=O)(=O)c3c(C)noc3C)CC2)cc1 | 1.02 | 0.788
CC1(C)NC(=O)N(CC(O)CN(c2cccc3ccccc23)S(=O)(=O)c2ccccc2)C1=O (stereo not drawn) | 1.02 | 0.676

(more compounds)
Structure | CBX7 AlphaScr | CBX7 AlphaScr z-score
CCOCCCNC(=O)c1cc(Nc2ccc(C)cc2C)nc2ccccc12 | 1.02 | 0.31
Cc1ccc(-c2nnc(Sc3nc4ccccc4o3)c3ccccc23)cc1 | 0.861 | -0.547
Cc1cc(N2CCOCC2)nc2ccc(NC(=O)CCC(=O)NCCCN3CC(C)CC(C)C3)cc12 (stereo not drawn) | 1.02 | 0.0312
Cc1cc(C(=O)Nc2cc(C)n(Cc3ccc(Cl)cc3)n2)no1 | 1.04 | 1.16
COCCCNC(=O)CSCc1nc(-c2cccc(OC)c2)oc1C | 1.17 | 1.95
CC(=O)Nc1ccc(Nc2nc(-c3ccccc3)c3cc(Br)ccc3n2)cc1 | 0.929 | -2.91
O=C(NC1CC1)c1ccc2c(c1)NC(=O)c1ccccc1S2 | 0.999 | -0.0348
COc1ccc(-c2nc(N)ncc2-c2ccc3c(c2)OCCO3)c(O)c1 | 0.861 | -4.94
Cc1oc(-c2cccc(Cl)c2)nc1CS(=O)(=O)CC(=O)NCCN1CCCC1 | 1.03 | 1.24
O=C(Cn1ncc2c1-c1ccccc1OC2)NCc1ccc(Cl)cc1 | 1.13 | 0.759
COc1ccc(NS(=O)(=O)c2cc(-c3n[nH]c(=O)c4ccccc34)ccc2C)cc1 | 1.01 | 0.221
COc1ccc(-c2cc(-c3ccc(C)cc3)n[nH]2)c(O)c1 | 0.918 | -3.39
CN(CCCNC(=O)C1CCN(c2nnc(-n3cccc3)s2)CC1)C1CCCCC1 | 2.1 | 11.6
CC1(C(=O)NC2CCCCCCC2)CCC(=O)N1CCc1ccc(Cl)cc1 (stereo not drawn) | 1.26 | 2.06
CN1CCN(CCCNC(=O)c2ccc(NC3=NC4CS(=O)(=O)CC4S3)cc2)CC1 (stereo not drawn) | 1.1 | 1.02
CCOC(=O)c1nc(Nc2ccc(C(F)(F)F)cc2)c2ccccc2n1 | 1 | 0.0726
Cc1ccc(C23CC4CC(C2)CC(c2csc(NC(=O)c5ccccc5)n2)(C4)C3)cc1 | 0.972 | -0.61
CN(C)c1ccc(/C=C/c2nc3ccccc3c(=O)n2CCCO)cc1 | 0.895 | -2.32
CC(=O)Nc1c2c(nn1-c1ccc(F)cc1)CS(=O)(=O)C2 | 0.993 | -0.0827
CCC(C)NC(=O)c1ccc2c(c1)N(Cc1ccccc1F)C(=O)c1ccccc1S2 (stereo not drawn) | 0.97 | -0.399
COc1ccc(-c2nnc(-c3cccc(F)c3)o2)cc1OC | 1.04 | 1.44
O=C(NCc1ccc(Cl)cc1)c1ccc2c(=O)n(CCc3ccccc3)c(=O)[nH]c2c1 | 1.03 | 0.693
Cc1ccc(-c2nnc(Nc3ccc(Cl)cc3)c3ccccc23)cc1S(=O)(=O)NCc1ccccn1 | 1.19 | 0.906
Cn1c(/C=C/c2ccc3c(c2)OCO3)nc2ccccc2c1=O | 1.11 | 2.71
Cc1cc(=O)c2n(Cc3ccc(Cl)cc3Cl)nc[n+]2[nH]1 | 0.976 | -0.307
COc1ccc(CCNC(=O)CS(=O)(=O)Cc2nc(-c3ccccc3Cl)oc2C)cc1OC | 0.999 | -0.0539
CCOc1ccc(CC(=O)NCCc2cc3c(OC)ccc(OC)c3[nH]c2=O)cc1 | 1.04 | 1.64
O=C(CC1Oc2ccccc2NC1=O)Nc1cccc2ccccc12 (stereo not drawn) | 1.06 | 0.372
O=C(O)CCc1nc(-c2ccc(Cl)cc2)no1 | 0.977 | -0.439
COc1cccc(NS(=O)(=O)c2ccc3[nH]cc(C(=O)NCCN4CCOCC4)c(=O)c3c2)c1 | 0.987 | -0.342

Quoted at random: 6 entries already listed, in no set order.
Structure | CBX7 AlphaScr | CBX7 AlphaScr z-score
Cc1ccc(-c2nnc(Nc3ccc(Cl)cc3)c3ccccc23)cc1S(=O)(=O)NCc1ccccn1 | 1.19 | 0.906
COc1cccc(NS(=O)(=O)c2ccc3[nH]cc(C(=O)NCCN4CCOCC4)c(=O)c3c2)c1 | 0.987 | -0.342
COc1ccc(-c2nnc(-c3cccc(F)c3)o2)cc1OC | 1.04 | 1.44
Cc1ccc(C23CC4CC(C2)CC(c2csc(NC(=O)c5ccccc5)n2)(C4)C3)cc1 | 0.972 | -0.61
CC(=O)Nc1c2c(nn1-c1ccc(F)cc1)CS(=O)(=O)C2 | 0.993 | -0.0827
Cn1c(/C=C/c2ccc3c(c2)OCO3)nc2ccccc2c1=O | 1.11 | 2.71

Other entries:
Structure | CBX7 AlphaScr | CBX7 AlphaScr z-score
Cc1nc2c(C(=O)NCc3ccc4c(c3)OCO4)cnn2c(C)c1Cc1c(F)cccc1Cl | 0.979 | -0.613
Cc1cc(C(=O)Nc2c(C)nn(Cc3ccccc3)c2C)no1 | 1.02 | 0.0422
CCCOc1ccc(C(=O)Nc2ncc(Cc3cccc(Cl)c3)s2)cc1 | 1.16 | 0.99
C=C(C)CC1NC2CC(C)(C)C1c1c(Br)ccc(Br)c12 (stereo not drawn) | 0.849 | -1.6
Cc1onc(-c2ccccc2Cl)c1C(=O)NC(C)(C)C | 1.02 | 0.512
O=C(C1CCC(CNS(=O)(=O)c2cccc3cccnc23)CC1)N1CCc2ccccc21 (stereo not drawn) | 0.954 | -1.28
c1cnc2nc(-c3ccsc3)c(Nc3ccc4c(c3)OCCO4)n2c1 | 0.861 | -0.139
CCc1ccc(NC(=O)c2nn3c(C(F)(F)F)cc(-c4ccc(Cl)cc4)nc3c2Cl)cc1 | 0.858 | -1.83
Cc1ccc(N(CC(=O)NC2CCCCCC2)S(=O)(=O)c2c(C)noc2C)cc1 | 1.03 | 0.232
O=c1c2ccccc2c(-c2cccs2)nn1Cc1ccccc1 | 1.04 | 1
Cc1cc(C)cc(NC(=O)CN(C)S(=O)(=O)c2ccc3c(c2)n(C)c(=O)c(=O)n3C)c1 | 1.05 | 0.423
CCC(=O)N1CCc2cc(S(=O)(=O)NCCCN(CC)Cc3ccccc3)ccc21 | 1.12 | 2.31

One compound at a time, as listed above. Order of screens: CBX7 AlphaScr	CBX7 AlphaScr z-score
COc1cccc(NC(=O)C2CCN(S(=O)(=O)c3ccc4c(c3)CCC(=O)N4)CC2)c1 is listed as 0.949	-0.88
COc1cccc(NS(=O)(=O)c2ccc3[nH]cc(C(=O)NCCN4CCOCC4)c(=O)c3c2)c1 is listed as 0.987	-0.342

Screening results (PubChem)
